# MARV entry inh = qHTS for inhibitors of binding or entry into cells for Marburg Virus; Marburg virus pseudotyped entry inhibition, cell reporter; control for the full effect not named in the record; about a third of the inactives were read at about 46 µM; Potency, µM (top dose mostly 37.8 µM), inactives show top-dose activity change, negative = inhibition, usual class: inhibitors; 300,000 compounds, 1.8% hits; active = well fitted inhibition curve with a large enough effect; inconclusive = small, poorly fitted or top-dose-only effect, or effect the other way; inactive = flat fitted curve, though single readings scatter; tested in HEK293 cells; about a fifth of its hits are not listed in these tables; note: % is set by controls: 0 for no effect and ±100 for the full control effect; luciferase read-out
# LASV entry inh = qHTS for Inhibitors of binding or entry into cells for Lassa Virus. Lassa virus pseudotype entry inhibition, cell reporter; control for the full effect not named in the record. Potency, µM (highest dose often 37.9 µM), for the others: at the top dose activity change, negative = inhibition, hits mostly inhibitors. 300,000 compounds, 1.2% hits. AID 540256, 2011; active means well fitted inhibition curve with a large enough effect; inconclusive means small, poorly fitted or top-dose-only effect, or effect the other way; inactive means flat fitted curve, though single readings scatter; tested in HEK293 cells; note: % is set by controls: 0 for no effect and ±100 for the full control effect; nearly all actives have a fitted effect of over 50% in size; luciferase read-out
# NS1 function inh = qHTS Assay for Inhibitors of Influenza NS1 Protein Function | S. cerevisiae slowed by influenza A NS1, growth recovery by OD600 | Potency, µM (series often up to 46.1 µM), inactives show at the highest dose activity, positive = more growth | 270,000 compounds, 0.4% hits | AID 2326, 2010; note: actives are rising curves; nearly all actives have a fitted effect of over 50% in size
#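 Compounds were scored for reversing the slow growth caused by influenza A NS1 in S. cerevisiae, measured by optical density at 600 nm. Assay medium contained 2% galactose at pH 6.0; NS1-free yeast of the same strain were the positive control.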
# Cruzain noTriton = qHTS Assay for Promiscuous and Specific Inhibitors of Cruzain (without detergent); Cruzipain (Trypanosoma cruzi), P25779; purified cruzain, Z-FR-AMC fluorescence, no detergent; Potency, µM, for the others: max response, negative = inhibition, hits mostly inhibitors; 200,000 compounds, 2.3% hits; AID 1476, 2009; active = well fitted curve in the direction sought with a large enough effect; inconclusive = small, poorly fitted or top-dose-only effect, or another doubt; inactive = no such curve, though single readings can be large; an effect the other way counts as inactive or inconclusive;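 note: plate controls were enzyme without inhibitor for no effect and buffer without enzyme for full effect; nearly all actives have a fitted effect of over 40% in size; top concentration of the series not given in the record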
# Target sequence (P25779 123-467 limits assumed): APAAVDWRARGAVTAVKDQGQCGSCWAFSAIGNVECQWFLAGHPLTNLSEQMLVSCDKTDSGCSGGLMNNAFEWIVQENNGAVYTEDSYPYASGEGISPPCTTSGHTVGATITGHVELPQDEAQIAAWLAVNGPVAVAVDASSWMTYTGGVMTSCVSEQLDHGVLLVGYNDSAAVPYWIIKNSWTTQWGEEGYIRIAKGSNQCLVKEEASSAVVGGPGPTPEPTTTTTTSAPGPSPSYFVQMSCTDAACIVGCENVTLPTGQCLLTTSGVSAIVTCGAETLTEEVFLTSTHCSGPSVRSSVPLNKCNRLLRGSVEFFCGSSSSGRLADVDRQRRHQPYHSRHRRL
#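 Purified cruzain at 1.5 nM, pre-incubated 15 min with compound at room temperature in 100 mM sodium acetate pH 5.5, 5 mM DTT, 0.00005% Triton X-100. Reaction started with 2 uM Z-FR-AMC; AMC fluorescence increase over 60 s gives rate.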
# SARS PLP yeast = qHTS of Yeast-based Assay for SARS-CoV PLP; S. cerevisiae expressing SARS-CoV PLpro, growth rescue; control for the full effect not named in the record; Potency, µM (top dose mostly 32.9 µM), without a hit: at the highest dose activity, positive = growth rescue; 330,000 compounds, 0.19% hits; AID 485353, 2010; note: 0% is about no effect; nearly all actives have a fitted effect of over 55% in size; growth read by luminescence after 48 h
# 2A StopGo = High Throughput Screening for Foot and Mouth Disease Virus Antivirals; human cells with a luciferase reporter of 2A StopGo recoding; control for the full effect not named in the record; Potency, µM (doses to about 57.9 µM), for the others: at the highest dose signal change, negative = less light; 410,000 compounds, 1.2% hits; active = well fitted falling curve with a large enough effect; inconclusive = small, poorly fitted or top-dose-only effect; inactive = no such curve, though single readings can be large or run the other way; tested in HEK293T cells; note: % is set by controls: 0 for no effect and ±100 for the full control effect; nearly all actives have a fitted effect of over 45% in size; luciferase light after 4 h
# Cruzain Triton = qHTS Assay for Promiscuous and Specific Inhibitors of Cruzain (with detergent) | Cruzipain (Trypanosoma cruzi), P25779 | purified cruzain, Z-FR-AMC fluorescence, 0.01% Triton | Potency, µM, for inactives: max response, negative = inhibition, usual class: inhibitors | 200,000 compounds, 0.43% hits; active = well fitted curve in the direction sought with a large enough effect; inconclusive = small, poorly fitted or top-dose-only effect, or another doubt; inactive = no such curve, though single readings can be large; an effect the other way counts as inactive or inconclusive;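 note: plate controls were neutral wells for no effect and buffer without enzyme for full effect; nearly all actives have a fitted effect of over 40% in size; top concentration of the series not given in the record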
#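 Cysteine protease activity tested under reducing, mildly acidic conditions (100 mM sodium acetate pH 5.5, 5 mM DTT) plus 0.01% Triton X-100. Cruzain 1.5 nM; substrate Z-FR-AMC 2 uM; 15 min compound preincubation at room temperature.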
# RE007 growth inh = qHTS Assay for Inhibitors of the HIV-1 protein Vpr; 360,000 compounds, 0.21% hits; S. pombe RE007 Vpr strain, BacTiter-Glo ATP luminescence, 24 h; control for the full effect not named in the record; Potency, µM (series often up to 92.2 µM), without a hit: at the top dose activity change, negative = less growth; active = well fitted falling curve with a large enough effect; inconclusive = small, poorly fitted or top-dose-only effect; inactive = no such curve, though single readings can be large or run the other way;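 note: % is set by controls: 0 for no effect and ±100 for the full control effect; nearly all actives have a fitted effect of over 50% in size; the assay follows cell death caused by Vpr and the record does not say whether a fall means rescue or toxicity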
#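 Fission yeast RE007 carrying one integrated HIV-1 vpr copy, seeded at OD 0.01 in PMG+AL medium with 23 nL pinned compound. Grown 24 h at 30 degrees; viability read by BacTiter-Glo luminescence after 5 min.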
# An asterisk follows results filed as active; ? = inconclusive; . = no result given; & = joins results of further samples; [ ] = another dose, or the depositor's remark. Unless noted, calls come from the whole dose curve; as a rule, active means well fitted rising curve with a large enough effect; inconclusive means small, poorly fitted or top-dose-only effect; inactive means no such curve, though single readings can be large or run the other way. Potency is the fitted concentration of half-maximal effect.
no.	compound	Cruzain Triton	2A StopGo	MARV entry inh	LASV entry inh	NS1 function inh	Cruzain noTriton	RE007 growth inh	SARS PLP yeast
1	CCn1cc(CN2CCC(n3nccc3NC(=O)C(OC)c3ccccc3)CC2)cn1 (stereo not given)	.	-10%	2%	12%	.	.	20%	.
2	c1cncc(C2Nc3cccc4cccc(c34)N2)c1	.	20%	-3%&-3%[46.1 µM]	-7%[46.1 µM]	-1%&-39%	.	-10%	3%&-1%
3	CCc1noc(C)c1C(=O)Nc1nnc(CC(C)C)s1	.	2%	13%[46.1 µM]	-1%	.	.	0%	-2%
4	CCOC(=O)c1c(C)oc2nc(C)nc(NCCCN3CCN(c4ccccc4OC)CC3)c12	-0.6%	-16%	.	?	.	-11%	.	.
5	CC(=O)N1CCOc2cc(S(=O)(=O)Nc3c(C)cccc3C(C)C)c(Cl)cc21	-0.2%	30%[activator]	.	6%[46.1 µM]	.	-5%	.	-4%
6	O=C1CCCN1CN(C(=O)c1ccccc1)c1ccc(F)cc1	3.9%	19%	-4%	-1%	-8%	2%	0%	-1%
7	COc1cc2c(cc1OC)CN(C(=O)/C=C/c1ccc([N+](=O)[O-])cc1)CC2	.	-4%	11%[46.1 µM]	0%[46.1 µM]	-11%	.	-2%	-7%
8	COc1ccc(S(=O)(=O)N2CCC(C(=O)NC(C)c3ccccc3)CC2)cc1 (stereo not given)	-2.1%	-23%	5%[46.1 µM]	-14%[46.1 µM]	.	-2%	.	.
9	CCC(O)c1nc2ccccc2n1CCOc1cc(C)cc(C)c1 (stereo not given)	-8.5%	-29%	?	?	.	?	.	.
10	CN(C)C=Nc1nonc1N	2.7%	7%	-10%	-2%	2%	-14%	-4%	0%
11	CC(C)(C)C(=O)CN1C(=O)C2(OCCO2)c2ccccc21	3.5%	-21%	?	-1%	-9%	13%	-6%	0%
12	O=C(Cn1ncc2c1-c1ccccc1OC2)Nc1nc2ccccc2s1	-14%	-13%	.	.	-166%	-21%	9%	-32%
13	Nc1cc(N)nc(SCC(=O)Nc2ccc3c(c2)OCO3)n1	.	5%	9%[46.1 µM]	1%	14%	.	-2%	15%
14	CC(=O)N1c2ccccc2Nc2ccccc21	-0.3%	-17%	?	-4%	-22%	-5%	-4%	-12%
15	O=C(CN1C(=O)NC2(CCCCCC2)C1=O)NCc1ccc(Cl)cc1	.	-25%	?	-20%	.	.	5%	2%
16	Cc1cc(N2CCCCC2)nc(N)n1	-3.0%	-24%	2%	3%	-1%	-14%	-5%	-2%
17	Cc1sc2ncn(CC(=O)N(C)c3ccc(Br)cc3)c(=O)c2c1S(=O)(=O)N1CCC(C)CC1	-2.7%	5%	?	3%[46.1 µM]	.	1%	.	.
18	CCOc1cc(C2NC(=O)NC(O)(C(F)(F)F)C2C(=O)c2ccc(OC)cc2)ccc1O (stereo not given)	5.7%	-8%	-12%	1%	-3%	-2%	-10%	6%
19	CCOc1ccc2nc(N(Cc3cccnc3)C(=O)c3cccs3)sc2c1	-5.8%	34%[activator]	.	-28%[46.1 µM]	.	?	.	.
20	CCOc1cc(/C=C(\C#N)C(=O)Nc2ccccn2)ccc1O	.	30%	?	10%[46.1 µM]	-23%	.	-7%	-3%
21	CCc1ccc(C(=O)c2cn(CC(=O)Nc3ccc4c(c3)OCO4)c3cc(OC)c(OC)cc3c2=O)cc1	-5.0%	-11%	1%[46.1 µM]	6%[46.1 µM]	.	?	.	.
22	C1=C(c2ccccc2)Nc2nnnn2C1c1cccs1 (stereo not given)	3.5%	33%[activator]	-1%	2%	4%	-7%	4%	0%
23	Nc1nonc1-n1nnc(C(=O)N/N=C/c2ccccc2Cl)c1-c1ccccc1	.	4%	-9%[46.1 µM]	-1%	4%	.	7%	-1%
24	Cc1ccc(C)c(OCC(=O)Nc2ccc(C(=O)O)cc2NC(=O)COc2cc(C)ccc2C)c1	.	-8%	-10%[46.1 µM]	1%[46.1 µM]	14%	.	-5%	-4%

# Some of the entries above in a different format.
(18) CCOc1cc(C2NC(=O)NC(O)(C(F)(F)F)C2C(=O)c2ccc(OC)cc2)ccc1O (stereo not given)
(19) CCOc1ccc2nc(N(Cc3cccnc3)C(=O)c3cccs3)sc2c1
(20) CCOc1cc(/C=C(\C#N)C(=O)Nc2ccccn2)ccc1O
(21) CCc1ccc(C(=O)c2cn(CC(=O)Nc3ccc4c(c3)OCO4)c3cc(OC)c(OC)cc3c2=O)cc1
(22) C1=C(c2ccccc2)Nc2nnnn2C1c1cccs1 (stereo not given)
(23) Nc1nonc1-n1nnc(C(=O)N/N=C/c2ccccc2Cl)c1-c1ccccc1

screen / no.	18	19	20	21	22	23
Cruzain Triton	5.7%	-5.8%	.	-5.0%	3.5%	.
2A StopGo	-8%	34%[activator]	30%	-11%	33%[activator]	4%
MARV entry inh	-12%	.	?	1%[46.1 µM]	-1%	-9%[46.1 µM]
LASV entry inh	1%	-28%[46.1 µM]	10%[46.1 µM]	6%[46.1 µM]	2%	-1%
NS1 function inh	-3%	.	-23%	.	4%	4%
Cruzain noTriton	-2%	?	.	?	-7%	.
RE007 growth inh	-10%	.	-7%	.	4%	7%
SARS PLP yeast	6%	.	-3%	.	0%	-1%

# Continued.
no.	compound	Cruzain Triton	2A StopGo	MARV entry inh	LASV entry inh	NS1 function inh	Cruzain noTriton	RE007 growth inh	SARS PLP yeast
25	CC1(C)CC(=S)Nc2ccccc2S1	-2.2%	35%[activator]	6%	-2%	9%	10%	-19%	24%
26	COc1ccc(CCNS(=O)(=O)c2ccc3oc(C(=O)O)c(C)c3c2)cc1OC	-0.1%	12%	-5%	11%	11%	-13%	0%	7%
27	O=C(Nc1ccc(S(=O)(=O)Nc2ccccn2)cc1)c1ccc(Cl)cc1Cl	.	39%	-15%	?	22%	.	6%	-3%
28	O=C(NCCN1CCN(Cc2ccccc2)CC1)Nc1cc(Cl)cc(Cl)c1	.	?	.	.	1%	.	2%	-1%
29	Cc1cc(OCCCCCN2CCCC2)ccc1Cl	.	-13%	.	.	-2%	.	-10%	-1%
30	COC(=O)c1c(C)oc(C)c1S(=O)(=O)NCc1cccs1	.	78%[activator]	.	.	-6%	.	11%	1%
31	O=C(COC(=O)CCC(=O)c1ccc(F)cc1)NCc1ccco1	.	2%	.	.	-1%	.	6%	-6%
32	CN(Cc1ccccc1)S(=O)(=O)c1ccc(F)c(C(=O)Nc2ccccc2C(F)(F)F)c1	0.5%	-9%	.	0%[46.1 µM]	.	-8%	.	.
33	CCc1cc(=O)oc2c3c(cc(OCC(=O)NCc4ccccn4)c12)OC(C)(C)CC3	.	?	.	.	-39%	.	-9%	-9%
34	Cc1cc(C)cc(NC(=O)CSCn2nnc3c(=O)[nH]c(Cc4ccc(F)cc4)nc32)c1	-2.2%	-9%	-4%[46.1 µM]	5%[46.1 µM]	.	-14%	.	.
35	C=CCNC(=O)NC(=O)COC(=O)CC(NC(N)=O)c1ccc(Cl)cc1 (stereo not given)	-1.9%	-3%	18%	-3%	-4%	11%	30%	-1%
36	O=c1oc2ccccc2c2nccnc12	0.3%	11%	25%	-2%	6%	-3%	5%	-1%
37	O=C(NC1CCN(Cc2ccc3ccccc3c2)CC1)c1ccccc1	.	-8%	?	-25%[46.1 µM]	2%	.	-1%	-3%
38	COc1ccc(CC(=O)Nc2cccc(SC)c2)cc1OC	.	?	?	?	.	.	0%	1%
39	CN(C)C(=S)Nc1cccc(-c2n[nH]c(=S)o2)c1	.	-12%	21%[46.1 µM]	?	.	.	6%	3%
40	COc1ccc(C2Oc3ccccc3C3=C2C(c2cccs2)n2ncnc2N3)cc1 (stereo not given)	-2.2%	?	?	?	?	-26%	8%	10%
41	CCOC(=O)C1(CCc2ccccc2)CCN(CC(O)CO)CC1 (stereo not given)	.	-5%	.	.	2%	.	-25%	3%
42	NS(=O)(=O)c1ccc(CCNC(=O)c2ccc[nH]c2=S)cc1	.	-5%	?	?	4%	.	8.9µM*	-13%
43	CC(=O)NN1C(=O)c2ccc3c4c(ccc(c24)C1=O)C(=O)N(NC(C)=O)C3=O	.	-19%	.	.	19%	.	-10%	8%
44	COc1ccc(NC(=O)C2CCCN(c3cnccn3)C2)c(OC)c1 (stereo not given)	0.5%	-14%&-11%	-5%[46.1 µM]	4%[46.1 µM]	-4%	-4%	-3%	-2%
45	CCOc1ccccc1NC(=O)N1CCCC1C(=O)Nc1ccc(NC(C)=O)cc1 (stereo not given)	0.0%	-15%	-13%	-2%	-4%	2%	6%	1%
46	Cc1cc(C)cc(OCC(=O)NCC2(N(C)C)CCCCC2)c1	2.4%	-20%	?	10%[46.1 µM]	.	-4%	.	.
47	COc1ccccc1N1CCN(Cc2nc(-c3ccc(F)cc3)oc2C)CC1	.	?	.	.	-6%	.	-10%	23%
48	COC(=O)CC1C(=O)NCCN1C(=O)CSc1nc2ccccc2o1 (stereo not given)	.	5%	-11%	20%	.	.	2%	0%
49	CC(C)(C)NC(=O)C(c1cccs1)N(C(=O)C(=O)NC1CCCC1)c1ccccc1F (stereo not given)	.	20%	.	30%	4%	.	1%	0%
50	COc1ccc(NS(=O)(=O)c2ccc(NC(=O)c3cnn4c(C(F)F)cc(-c5ccc(C)cc5)nc34)cc2)cc1	4.5%	.	3%	.	9%	-11%	.	-2%
51	Cn1c(=O)c2[nH]c(SCCN3CCOCC3)nc2n(C)c1=S	-1.0%	2%	8%[46.1 µM]	16%[46.1 µM]	7%	1%	2%	.
52	COCCNC(=O)c1cc(-c2cccnc2)nc2ccc(Br)cc12	-4.1%	-9%	2%	-12%	-3%	10%	-7%[3.69 µM]	0%
53	Cc1ccc2nc(-c3ccc(NC(=O)COc4ccc(Cl)c(C)c4)cc3)sc2c1	-6.0%	51%[activator]	.	11%[46.1 µM]	.	14%	.	.
54	O=C(O)CCCc1nc(-c2ccccc2)no1	7.9%	23%	1%	1%	0%	0%	6%	7%
